UCH37 DUB inh: inhibitors of human UCH37 deubiquitinase, primary screen, biochemical, Ub-AMC cleavage, fluorescence | Ubiquitin carboxyl-terminal hydrolase isozyme L5 (Homo sapiens), Q9Y5K5 | AID 588478, 2011 | 0.33% of 330,000 active | purified proteasome/UCH37 | inhibition, % (concentration not given with the values);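 active = mean of two replicates above 20%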;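 also: 0% = compound-free wells with enzyme and 100% = wells lacking proteasome; stock transfer was 100 nL into about 20 µL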
Target sequence (Q9Y5K5 whole entry, looked up): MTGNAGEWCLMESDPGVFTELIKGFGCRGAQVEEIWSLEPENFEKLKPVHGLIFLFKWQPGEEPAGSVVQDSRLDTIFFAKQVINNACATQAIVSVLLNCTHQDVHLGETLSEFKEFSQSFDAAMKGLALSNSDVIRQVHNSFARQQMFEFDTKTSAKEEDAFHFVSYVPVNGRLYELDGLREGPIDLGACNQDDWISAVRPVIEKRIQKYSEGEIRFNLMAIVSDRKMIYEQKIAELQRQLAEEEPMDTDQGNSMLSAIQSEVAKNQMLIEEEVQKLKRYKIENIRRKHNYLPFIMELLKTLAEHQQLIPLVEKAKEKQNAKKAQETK
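Material: human UCH37 enzyme supplied as purified proteasome complex / Amount: 0.15 nM proteasome as dispensed / Buffer or medium: pH 7.4 Tris-HCl (50 mM) with ovalbumin, ATP-MgCl2, DTT / Times: preincubation 30 min, reaction 25 min, room temperature / Technique: AMC fluorescence from Ub-AMC cleavage, excitation 355 nm, emission 460 nm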
HNF4A DNA FP: change in binding of human HNF4A to DNA, primary screen, biochemical, fluorescence polarization, FITC-DNA | Hepatocyte nuclear factor 4-alpha (Homo sapiens), P41235 | 1 h | activity change, % at 10 µM | 0.3% of 360,000 active | AID 1224865, 2016; in the data active = activity change above about 30%, passing the limit was not always enough;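 also: controls were the assay level and a saturating level of protein; the project sought stronger binding though the title names inhibitors; some compounds called inactive have numbers as strong as hits; positive values seem to mean higher polarization but the record does not say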
Beta2AR agonist: beta2AR agonists driving receptor internalization, primary screen, cell-based, FAP fluorogen, flow cytometry; Beta-2 adrenergic receptor (Homo sapiens), P07550; Am2.2-beta2AR cells; reference of the scale not given here; response, % (no concentration beside the values); 0.43% of 340,000 active; AID 504454, 2011;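 active = response above a set limit, near 3 SD of response in nonfluorescent compounds, cut at about 42% in these data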;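 also: stock transfer was 100 nL into about 11 µL; a reference agonist was the positive control; negative values mostly stem from fluorescent compounds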
Target sequence (P07550 whole entry, looked up): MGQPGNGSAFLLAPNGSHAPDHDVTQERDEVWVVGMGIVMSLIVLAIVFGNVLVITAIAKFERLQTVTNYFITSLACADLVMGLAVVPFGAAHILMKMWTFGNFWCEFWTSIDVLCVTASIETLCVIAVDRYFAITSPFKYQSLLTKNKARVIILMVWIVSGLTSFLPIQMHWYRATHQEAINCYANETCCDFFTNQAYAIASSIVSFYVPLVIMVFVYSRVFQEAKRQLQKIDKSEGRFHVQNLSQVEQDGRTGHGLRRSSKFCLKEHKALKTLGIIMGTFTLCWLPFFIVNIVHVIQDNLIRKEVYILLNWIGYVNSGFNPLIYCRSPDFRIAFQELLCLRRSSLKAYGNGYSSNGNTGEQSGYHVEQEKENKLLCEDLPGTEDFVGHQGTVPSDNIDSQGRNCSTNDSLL
Vif A3G: inhibitors of Vif binding to APOBEC3G peptide, primary screen, biochemical, TR-FRET, GST-Vif 1-94, biotin-A3G peptide, dose response retest (AID 1117319); Virion infectivity factor (Human immunodeficiency virus type 1 group M subtype B (isolate …; inhibition, %, or IC50 in µM where a hit was titrated; TR-FRET GST-Vif / biotin-A3G peptide binding; higher % means a stronger effect; test concentration not given here; strong numbers were not always called active; 0.57% of 260,000 active;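 active = above the screen mean plus three standard deviations and confirmed in dose response; inconclusive = results disagree or hit not tested in dose response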;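 also: Vif residues 1-94 fused to GST binding biotinylated APOBEC3G peptide 110-148; 0% = full assay without inhibitor and 100% = GST in place of GST-Vif; retest series ran down from 100 µM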
LANA-H2A inh: blockers of LANA interaction with H2A/H2B – biochemical, FP readout, HTS, primary screen. AID 2629, 2010. cell-free LANA-H2A/H2B peptide, fluorescence polarization. 0.6% of 320,000 active. Protein LANA1 (Human herpesvirus 8 type P (isolate GK18)), Q9QR71. inhibition, % (concentration not given with the values); in the data active = inhibition mostly above about 10%, no sharp cut-off; inactive = mostly below about 6.7%;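 also: stock transfer was 7.5 nL into about 10 µL; 0% = median of vehicle wells and 100% = median of positive control wells; one replicate is shown; the record names a cut of 25% in any replicate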
Ecoli growth: E. coli growth inhibition, primary screen, OD600 | Escherichia coli growth, 23 h; active compounds read low | OD600 absorbance (no concentration beside the values) | 0.21% of 330,000 active | AID 1053175, 2014;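 active = OD600 absorbance below the run mean of sample wells minus 3.6 SD, in any replicate, cut at about 0.56 in these data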;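 also: stock transfer was 300 nL into about 60 µL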
A1 inh: caspase 3/7 activation in MEF A1-2A-BIM cells, primary screen, A1 inhibitor project, cell-based, luminescence, HTS; Caspase-Glo 3/7 luminescence, 3 h; percent of clofoctol response, vehicle zero; caspase activation, % (test concentration not listed); 0.066% of 330,000 active; AID 2462, 2010;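 active = over half of replicate activation scores above 10%, or exactly half above 10 with the replicate mean above 10; inconclusive = replicate mean below 10 yet half the replicates above 10; inactive = over half of replicates below 10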;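 also: wells of about 30 µL received 50 nL stock; many hits fall short of the cut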
The depositor's hits bear a star; i = inactive; ? = inconclusive; / = not tested or not shown.

Results follow in this order: UCH37 DUB inh | Beta2AR agonist | HNF4A DNA FP | Vif A3G | LANA-H2A inh | A1 inh | Ecoli growth
> O=C(Nc1cccc2ccccc12)c1ccc([N+](=O)[O-])s1
 : 1.4 | 8 | -3.8 | -3% | 0.5 | -0.1 | 0.63
> COC(=O)N1CC=CC1(C)C(=O)NCc1cc(F)cc(C(F)(F)F)c1 (stereo not drawn)
 : 3.5 | -1 | 3.6 | 2% | -4.0 | 0.1 | 0.67
> O=C(COC(=O)CCC(=O)c1ccc(F)cc1)Nc1ccc(N2CCOCC2)cc1
 : 0.5 | 7 | 1.0 | 19% | -1.1 | 1.6 | 0.75
> COc1ccc(CCNC(=O)Cn2cnc3ccccc3c2=O)cc1OC
 : 4.1 | -5 | -0.6 | 7% | 1.3 | -0.2 | 0.68
> O=C(NC1CCCCC1)c1ccc(CS(=O)Cc2ccc(Cl)cc2)o1 (stereo not drawn)
 : -1.5 | 0 | -2.7 | 1% | -1.4 | 1.8 | 0.71
> CC(C)OC(=O)C1OC1(C)c1ccccc1 (stereo not drawn)
 : 0.6 | -6 | 4.8 | -3% | / | / | 0.65
> COc1ccc(C(=O)OCC(=O)Nc2ccc(F)cc2F)cc1OC
 : -0.2 | 2 | 0.8 | -3% | 0.9 | 2.1 | 0.69
> COc1ccc(OC)c(Nc2ncnc3ccccc23)c1
 : 3.8 | -4 | -1.3 | 1% | 0.8 | -0.2 | 0.68
> Cc1c(-n2c(-c3ccccc3Cl)n[nH]c2=S)c(=O)n(-c2ccccc2)n1C
 : 1.7 | 2 | 3.9 | -3% | 3.4 | 0.5 | 0.71
> COc1ccc(C(=O)NCC(=O)OCC(=O)c2ccc3c(c2)OCCO3)cc1
 : 0.4 | -3 | -0.8 | -21% | -3.1 | -0.1 | 0.68
> O=C(COC(=O)C12CC3CC(CC(Br)(C3)C1)C2)N1CCOCC1
 : 2.2 | 0 | 1.0 | 5% | -0.9 | 0.8 | 0.68
> Cn1c(CCNS(=O)(=O)c2ccccc2)nc2cc([N+](=O)[O-])ccc21
 : 6.3 | 5 | 0.8 | / | 0.4 | 0.6 | 0.66
> CCCC(C)C(=O)Nc1nnc(CCc2ccccc2)s1 (stereo not drawn)
 : 0.9 | -7 | 0.9 | / | -1.7 | 1.4 | 0.69
> CN(C)c1ccc(CNCCC2CCOC(C)(C)C2)cc1 (stereo not drawn)
 : / | / | / | 10% | 4.4 | -0.1 | /
> O=C(N/C(=C\c1ccc(Cl)cc1)C(=O)N1CCOCC1)c1ccc([N+](=O)[O-])cc1
 : 5.7 | -1 | 1.0 | / | 1.5 | 1.0 | 0.64
> O=C(CCSCc1cccc(F)c1)NCCc1ccccc1
 : -0.8 | 6 | 2.9 | / | 1.0 | -0.3 | 0.61
> COC(=O)[C@@]12CCCCN1[C@H](c1ccc(-c3ccccc3)cc1)[C@@H]1C(=O)N(C)C(=O)[C@@H]12
 : 0.2 | 14 | 5.6 | / | -0.1 | 2.1 | /
> Cc1cc(C)n(-c2nc3ccccc3c(=O)n2OCc2ccc(Cl)cc2)n1
 : 4.6 | -3 | 1.4 | 1% | -2.9 | 0.4 | 0.73
> CCCC1=Nc2cc(C(=O)NCCN3CCOCC3)ccc2Sc2ccccc21
 : 1.1 | 6 | 2.7 | / | 0.0 | 0.4 | 0.69
> CCOc1ccc(S(=O)(=O)N2CCNC(=O)C2)cc1
 : 4.7 | 4 | -0.2 | / | -4.4 | 0.2 | 0.68

Complete entries as entered above.
COc1ccc(CCNC(=O)Cn2cnc3ccccc3c2=O)cc1OC across the screens: UCH37 DUB inh: 4.1; Beta2AR agonist: -5; HNF4A DNA FP: -0.6; Vif A3G: 7%; LANA-H2A inh: 1.3; A1 inh: -0.2; Ecoli growth: 0.68
CCOc1ccc(S(=O)(=O)N2CCNC(=O)C2)cc1 across the screens: UCH37 DUB inh: 4.7; Beta2AR agonist: 4; HNF4A DNA FP: -0.2; Vif A3G: /; LANA-H2A inh: -4.4; A1 inh: 0.2; Ecoli growth: 0.68

Additional structures
Results follow in this order: UCH37 DUB inh | Beta2AR agonist | HNF4A DNA FP | Vif A3G | LANA-H2A inh | A1 inh | Ecoli growth
> O=C(c1ccc(Cl)cc1)N1CCCC(c2ccccc2)=N1
 : 5.0 | -4 | -2.2 | 19% | -0.7 | 0.8 | 0.66
> CCO[C@H]1OC(C(=O)O)=C[C@@H](c2ccccc2)[C@@H]1CCCO
 : 0.7 | 1 | 0.9 | / | -1.8 | 0.0 | /
> CCCCOc1ccc(N2C(N)=NC(N)=NC23CCCCC3)cc1
 : 0.9 | -2 | -1.3 | / | -0.7 | 0.2 | 0.64
> CCOC(=O)c1c(NC(=O)CSc2nc3ccccc3c(=O)n2-c2ccccc2)sc(C(C)=O)c1C
 : 0.0 | 6 | 12 | -9% | 7.3 | -0.2 | 0.72
> CC(=O)Nc1coc2ccc(Br)cc12
 : 2.2 | 7 | 2.9 | 1% | -1.0 | 0.2 | 0.74
> COC(=O)c1ccc(Cn2cc(C(F)(F)F)ccc2=O)cc1
 : 2.2 | -4 | 0.7 | -8% | 0.6 | -0.3 | 0.69
> CCOC(=O)c1cnc2nc(SC)nn2c1N
 : 1.1 | -8 | 3.8 | 4% | -6.5 | -0.8 | 0.71
> CCCOc1ccc(NC(=O)C(=O)NCCCn2ccnc2)cc1
 : 3.3 | -5 | -2.6 | / | -0.1 | 0.4 | 0.68
> Cc1ccc(NC(=O)Cn2c(O)c(N=NC(N)=O)c3ccccc32)cc1
 : 6.8 | -11 | 3.2 | -2% | 4.2 | 0.4 | 0.7
> O=C(NCCc1ccc(C(F)(F)F)cc1)C1CC(=O)N(Cc2ccccc2)C1 (stereo not drawn)
 : 4.1 | 0 | 3.1 | / | 9.2 | 0.4 | 0.68
> COC(=O)C1CC23C=CCN4CCC5(c6ccccc6NC15C2C)C43 (stereo not drawn)
 : / | 7 | 4.5 | -4% | -1.7 | 1.0 | /
> C/C=C(\C)C(=O)Nc1cccc(C2=NOC3(C2)C[C@H](C(N)=O)N(C(=O)c2cc([N+](=O)[O-])cc([N+](=O)[O-])c2)C3)c1 (stereo partly drawn)
 : 4.0 | -6 | 0.7 | 10% | -1.2 | ? | /
> O=C1CN(S(=O)(=O)c2ccccc2)CC(=O)N1CCc1ccccc1
 : 2.6 | -1 | 2.1 | 2% | 3.1 | 0.8 | 0.7
> COc1ccc(C2=NN(C(C)=O)C(c3cccs3)C2)cc1OC (stereo not drawn)
 : / | -1 | 0.8 | -1% | -1.1 | -0.9 | /
> COc1ccc(/C=N/N(CCC(=O)NC(C)(C)C)C2=NS(=O)(=O)c3ccccc32)cc1
 : / | 5 | -0.4 | 3% | -5.5 | -0.6 | /
> CC(C)N1CCN(Cc2cccc(-c3ccco3)c2)CC1CCO (stereo not drawn)
 : 1.1 | -9 | 4.3 | 5% | -6.2 | -0.2 | 0.7
> CC(=O)N(Cc1cc2cc(C)ccc2[nH]c1=O)c1cccc(C)c1C
 : -9.1 | -1 | -1.2 | / | -1.7 | 1.2 | 0.66
> N#CC1=C(C=Nc2ccccc2O)CCC1
 : -2.0 | -2 | -1.0 | 3% | -0.6 | 0.4 | 0.72
> C/C(=N\NC(=S)NCc1ccccc1)c1ccc(Br)cc1
 : / | -4 | -1.7 | -6% | -5.7 | -0.2 | /
> O=C(CN1CCN(c2ccccn2)CC1)NC1CCCC1
 : -0.8 | 3 | 5.7 | 0% | 4.8 | 0.9 | 0.63

Next results.
Results follow in this order: UCH37 DUB inh | Beta2AR agonist | HNF4A DNA FP | Vif A3G | LANA-H2A inh | A1 inh | Ecoli growth
> CCOC(=O)C1=C(Nc2cccc(Cl)c2)OCC1=O
 : 4.7 | -6 | -1.2 | 4% | 1.8 | 1.0 | 0.77
> CC(C)(C)NC(=O)c1nn2c(C(F)(F)F)cc(-c3ccccc3)nc2c1Br
 : -25 | -2 | -2.8 | / | -0.3 | -0.9 | 0.69
> O=C(NNC(=S)Nc1ccccc1Cl)c1ccccc1
 : -1.4 | -1 | -4.2 | / | -0.1 | 1.3 | 0.62
> Cn1cc(Br)c(C(=O)NNC(=O)Cc2ccc(Cl)cc2)n1
 : -0.2 | -11 | 2.9 | / | -3.0 | -0.1 | 0.65
> Cc1ccc(-c2ccc(/C=N/NC(N)=S)o2)cc1
 : / | 5 | 8.3 | 23% | 1.8 | 1.1 | /
> Cc1ccc(/C=N/n2c(C)n[nH]c2=S)o1
 : / | -1 | 0.6 | -10% | 5.4 | 0.3 | /
> CCOc1ccccc1NS(=O)(=O)c1ccc2oc(=O)ccc2c1
 : 0.1 | -13 | 0.4 | -3% | 0.0 | 1.9 | 0.7
> COc1ccc(-c2ccc(SCC(=O)N3CCCC3)nn2)cc1OC
 : 2.3 | 0 | 0.4 | 1% | 0.7 | 0.0 | 0.7
> CCc1ccc(OCC2c3cc(OC)c(OC)cc3CCN2C(=S)NC)cc1 (stereo not drawn)
 : 1.1 | 2 | -5.3 | / | 2.0 | 0.3 | 0.73
> Cc1ccc(-c2nnn(CC(=O)N(CC(=O)NC3CCCC3)c3ccccc3F)n2)o1
 : 0.6 | -13 | 0.5 | / | / | / | 0.69
> CN(C(=O)CSc1nc2scc(-c3ccccc3)c2c(=O)[nH]1)c1ccccc1
 : 0.5 | 19 | 13 | / | -3.1 | -0.6 | 0.69
> O=C(CCC1CCCCC1)Nc1cc(Cl)ccc1N1CCOCC1
 : 0.2 | -3 | -2.1 | -7% | / | / | 0.7
> CC1CN(CCc2ccccc2)c2nc3c(c(=O)n(CC(N)=O)c(=O)n3C)n2C1 (stereo not drawn)
 : -6.9 | -15 | -0.3 | / | 7.5 | 1.0 | 0.69
> CCOC(=O)c1ccc(S(=O)(=O)N2CCC(C(=O)N3CCN(c4ccccc4OC)CC3)CC2)cc1
 : 2.9 | 13 | -1.9 | / | / | / | 0.71
> O=C(O)c1ccccc1Nc1ccc([N+](=O)[O-])cc1
 : 6.2 | 10 | -4.0 | 0% | i | -6.9 | 0.65
> Cn1nc([N+](=O)[O-])nc1Sc1nnc(-c2ccccc2)o1
 : 3.6 | 13 | 0.4 | 2% | -0.1 | -0.1 | 0.67
> COc1ccc(N2CCN(C(=O)C(C)(C)Oc3ccc(Cl)cc3)CC2)cc1
 : 2.0 | 4 | 3.5 | 33% | 4.2 | 0.9 | 0.72
> COCc1cc(C)nc(Nc2ccccc2C)c1C#N
 : 3.4 | 6 | 3.2 | -11% | -1.5 | 0.7 | 0.71
> CC1(C)CC(=O)c2cc(C(=O)NCc3ccco3)c(=O)n(-c3ccc(Cl)cc3)c2C1
 : -0.8 | -3 | 4.0 | ? | 0.2 | -0.1 | 0.71
> COc1ccc(Br)cc1C1Nc2ccccc2C(=O)N1NC(=O)c1ccncc1 (stereo not drawn)
 : 2.6 | 19 | 1.4 | 7% | -2.0 | 1.0 | 0.71
> O=C(CSc1nc2ccsc2c(=O)n1Cc1ccc(C(=O)O)cc1)NCC1CCCO1 (stereo not drawn)
 : 1.2 | 1 | 1.2 | ? | 2.2 | -0.7 | 0.63
> COC(=O)c1sc(NC(=O)c2ccc(Cn3cc(Cl)cn3)o2)c(C#N)c1C
 : 2.3 | 6 | -1.9 | >100µM* | -1.9 | -1.7 | 0.68

High-throughput results from PubChem.
